# NPYLR7 ag – mosquito NPYLR7 agonism. activation, % at 10 µM. HEK293T NPYLR7/Galpha15, GCaMP6s calcium fluorescence. hit rate 0.15% among 270,000; in the data active = activation above about 40%;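 note: 0% = vehicle and 100% = reference agonist at the receptor; some compounds past the cut are filed as inactive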
# NPYLR7 ag max-min – second read-out of NPYLR7 ag, no call of its own (marks repeat the call); activation, %; measured here: Max-Min RFU normalised activation; some inactives read as strong as hits;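 span of the calcium signal over five minutes; 0% = vehicle and 100% = native peptide agonist; compound fluorescence can raise it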
# Active calls of the source: *; & = joins results of further samples. This is a subset; the hit share may differ from the screen's.
[1] CCCCCCCCCCCC(=O)N(CC(=O)N1CC(=O)N(c2cccc(Cl)c2)C1)C1CC1
[2] CC1ON=C(c2ccco2)N(Cc2ccc(F)cc2)C1=O (stereo not given)
[3] CN1CCN(C(=O)c2cc3n(n2)CCN(C(=O)C2(C)CCCO2)C3)CC1 (stereo not given)
[4] COc1cc(C)ccc1S(=O)(=O)NCc1ccc2c(c1)OCO2
[5] CN(C)CCN(C(=O)c1cccc(F)c1)c1nc2c(F)cc(F)cc2s1
[6] COCCn1c(=NC(=O)c2cccc(S(C)(=O)=O)c2)sc2cccc(F)c21
[7] CCNS(=O)(=O)c1ccc(C(=O)Nc2ccc3c(c2)CCN3C(C)=O)cc1
[8] O=C(NCc1ccco1)c1cccnc1Oc1cccc([N+](=O)[O-])c1

assay / compound	1	2	3	4	5	6	7	8
NPYLR7 ag max-min	31.6	1.1	1.9	-2.1&0.0	-10.4	3.5	0.6	-11.2
NPYLR7 ag	26.9	5.1	2.5	-0.1&5.7	-6.4	4.4	1.4	-6.5

[9] COc1cccc(-n2c(=O)[nH]c3c(C(N)=O)nc(CCc4ccccc4)nc32)c1
[10] Cc1ccc(Cc2nc(=S)[nH][nH]2)cc1C
[11] Cc1nn(-c2ccc(Cl)cc2)c(C)c1C(=O)NCC(C)C
[12] Cc1cc(NCCCn2ccnc2)n2ncc(-c3ccccc3)c2n1
[13] Cn1nc(C(C)(C)C)cc1NC(=O)C1(C)CCN1C(=O)CC(c1ccccc1)c1ccccc1 (stereo not given)
[14] Cc1cc(=O)oc(C)c1C(=O)O
[15] CC(C)CN(Cc1cccc(OS(C)(=O)=O)c1)C(=O)c1cccc(C(F)(F)F)c1
[16] CCN(CC(=O)NC(C)C)S(=O)(=O)c1c(F)cc(C#N)cc1F

assay / compound	9	10	11	12	13	14	15	16
NPYLR7 ag max-min	0.5	1.8	15.0	-8.2	-2.5	6.5	1.0	13.2
NPYLR7 ag	5.3	0.9	19.7	-5.8	-1.8	2.7	-6.7	3.2

[17] CC(C)Oc1ccc(C(=O)N(C)CC2CCN(CCc3ccc(Cl)cc3)CC2)cc1
[18] CC(=O)C(C(=O)N(C)C)n1cnc2c(nnn2-c2ccc(Br)cc2)c1=O (stereo not given)
[19] FC(F)(F)c1cccc(N2CCN(c3nc(-c4cccc(Br)c4)nc4ccccc34)CC2)c1
[20] Cc1nc(C)c(CC(=O)NC2CC(=O)N(Cc3cccc(F)c3)C2)c(=O)[nH]1 (stereo not given)
[21] CCN(CCO)c1ccc(Nc2cc(-c3ccc4ccccc4c3)ncn2)cc1
[22] CN(Cc1cccc(C(=O)Nc2cn(C)nn2)c1)CC1Cc2ccccc2O1 (stereo not given)
[23] Cc1ccc2c(c1)CCN1C(=O)CN(C(=O)Nc3c(F)c(F)c(F)c(F)c3F)CC21 (stereo not given)
[24] O=S(=O)(c1c(Cl)cccc1Cl)N1CCN(Cc2cccc3cccnc23)CC1

assay / compound	17	18	19	20	21	22	23	24
NPYLR7 ag max-min	-0.8	-4.3	-4.0	9.7	3.0	2.1	6.4	-9.5
NPYLR7 ag	3.5	0.8	0.5	11.0	5.8	3.1	19.5	-5.7

[25] CCCC(=O)Nc1nn(CC)c2nc3c(C)cccc3cc12
[26] O=C(NCCC(=O)N1CCC[C@H]1CN1CCCC1)c1ccccc1F
[27] COC1C=CC23c4cc5c(cc4CN(CC2O)[C@@H]3C1)OCO5 (stereo not given in full)
[28] CN(c1ccc(F)cc1)S(=O)(=O)c1cc(C(=O)O)cc2c1CCC2
[29] COc1ccc(C2C(=C(O)c3ccccc3)C(=O)C(=O)N2CCCN(C)C)cc1OC (stereo not given)
[30] O=c1n(Cc2ccc3c(c2)OCO3)nc(C2CCNCC2)n1-c1ccccc1
[31] Cc1cc(CNS(=O)(=O)c2ncn(C)c2Cl)ccc1N(C)C
[32] O=C(CN1CCC1Cc1ccccc1)Nc1ccccc1OC(F)F (stereo not given)

assay / compound	25	26	27	28	29	30	31	32
NPYLR7 ag max-min	-13.2	-10.6	-11.5	3.6	0.2	1.0	3.2	1.4
NPYLR7 ag	-7.0	-1.9	3.4	0.9	0.6	-3.1	3.3	3.7

[33] CSc1ccc(C(=O)CCC(=O)NCCCOc2cccc([N+](=O)[O-])c2)cc1
[34] CC(=O)c1ccc(-c2nnc(CCC(=O)NC(c3cccnc3)C(F)(F)F)o2)s1 (stereo not given)
[35] CCCN1CCc2c(sc3c2c(NC(CC)CO)nc2nnnn23)C1 (stereo not given)
[36] N#CCCN(Cc1ccccc1)C(=O)/C=C(/C(=O)N(CCC#N)Cc1ccccc1)c1ccccc1
[37] COc1cccc(NC(=O)CN2CN(c3ccccc3)C3(CCN(C(=O)c4ccc(C)c([N+](=O)[O-])c4)CC3)C2=O)c1
[38] CCNC(=O)Cn1nnc(-c2ccccc2I)n1
[39] COc1ccc(-n2c(CCC(=O)NCc3cnc(C)cn3)ccc2-c2ccc(Cl)cc2)cc1
[40] CCN(CC)C(=O)c1cc(NC(=O)C(Cl)c2ccccc2)ccc1N1CCCC1 (stereo not given)

assay / compound	33	34	35	36	37	38	39	40
NPYLR7 ag max-min	9.8	2.5	98.4*	-14.8	22.1	10.6	1.8	6.4
NPYLR7 ag	12.5	16.5	69.4*	-6.7	22.2	11.9	5.3	0.8

[41] CC1CCCN(Cc2nc3c(c(=O)n(C)c(=O)n3C)n2Cc2ccccc2F)C1 (stereo not given)
[42] O=C(CSc1nc2ccccc2[nH]1)N/N=C\c1c[nH]c2ccccc12
[43] COc1ccc(C2(c3ccc(OC)cc3)NC(=O)N(CN3CCOCC3)C2=O)cc1
[44] COc1cc(/C=C2/C(=O)N(c3ccc(Cl)c(Cl)c3)N=C2C)ccc1OCC(=O)O
[45] CC(C)CN1CC(C(=O)N2CCc3nc[nH]c3C2)CC1=O (stereo not given)
[46] NCCC1CCCN(Cc2ccccc2C(F)(F)F)C1 (stereo not given)
[47] Cc1cnc(NCCCC2CCOC2)nc1N(C)C (stereo not given)
[48] O=C(CC(NCCC1=CCCCC1)C(=O)O)Nc1ccc2ccccc2c1 (stereo not given)

assay / compound	41	42	43	44	45	46	47	48
NPYLR7 ag max-min	-17.6	12.2	7.9	16.2	8.0	3.2	15.9	1.5
NPYLR7 ag	-17.1	2.7	13.0	9.8	17.6	6.5	25.6	3.6

[49] CC1(C)CC(=O)C2=C(C1)OC1=C(C(=O)CC(C)(C)C1)C2c1cc2ccccc2[nH]c1=O
[50] COc1cc(NC(=O)C2(C)CCN2C(C)C)cc(OC)c1OC (stereo not given)
[51] COc1cccc(C2=NN(C(=O)c3cccs3)C(c3cccs3)C2)c1 (stereo not given)
[52] NC(=O)CSc1nc2cc(Cl)ccc2c(=O)n1C1CCCC1
[53] c1ccc(-c2nnc(NC3CCCCC3)s2)cc1
[54] CC(=O)c1ccc(S(=O)(=O)NCCOc2ccc(-c3ccco3)nn2)cc1
[55] CC(C)N(C(=O)c1cnc(-c2ccsc2)s1)c1cccnc1
[56] COc1cccc(Nc2cc(N3CCC[C@H]3C(=O)NCCCn3ccnc3)nc(N)n2)c1

assay / compound	49	50	51	52	53	54	55	56
NPYLR7 ag max-min	0.1	0.5	8.0	1.4	1.1	-4.2	2.5	5.4
NPYLR7 ag	0.0	2.4	3.7	7.4	2.7	-4.4	5.8	3.1

# Another view of some results above.
# Order of results – NPYLR7 ag max-min, NPYLR7 ag
2. CC1ON=C(c2ccco2)N(Cc2ccc(F)cc2)C1=O (stereo not given)
 : 1.1, 5.1
3. CN1CCN(C(=O)c2cc3n(n2)CCN(C(=O)C2(C)CCCO2)C3)CC1 (stereo not given)
 : 1.9, 2.5
4. COc1cc(C)ccc1S(=O)(=O)NCc1ccc2c(c1)OCO2
 : -2.1&0.0, -0.1&5.7
5. CN(C)CCN(C(=O)c1cccc(F)c1)c1nc2c(F)cc(F)cc2s1
 : -10.4, -6.4
6. COCCn1c(=NC(=O)c2cccc(S(C)(=O)=O)c2)sc2cccc(F)c21
 : 3.5, 4.4
7. CCNS(=O)(=O)c1ccc(C(=O)Nc2ccc3c(c2)CCN3C(C)=O)cc1
 : 0.6, 1.4
8. O=C(NCc1ccco1)c1cccnc1Oc1cccc([N+](=O)[O-])c1
 : -11.2, -6.5
9. COc1cccc(-n2c(=O)[nH]c3c(C(N)=O)nc(CCc4ccccc4)nc32)c1
 : 0.5, 5.3
10. Cc1ccc(Cc2nc(=S)[nH][nH]2)cc1C
 : 1.8, 0.9
11. Cc1nn(-c2ccc(Cl)cc2)c(C)c1C(=O)NCC(C)C
 : 15.0, 19.7
12. Cc1cc(NCCCn2ccnc2)n2ncc(-c3ccccc3)c2n1
 : -8.2, -5.8
13. Cn1nc(C(C)(C)C)cc1NC(=O)C1(C)CCN1C(=O)CC(c1ccccc1)c1ccccc1 (stereo not given)
 : -2.5, -1.8

# Continued:
[57] Cc1ccc(S(=O)(=O)Nc2cnn(CC(F)F)c2)cc1F
[58] CC(C)CSc1ncnc2c1cnn2-c1ccccc1
[59] Cc1c(C(=O)N2CCC(C(N)=O)CC2)oc2c(Cl)cccc12
[60] CCCCCNC(=O)c1cccn2c(C)nnc12
[61] CCOc1ccccc1C(=O)N1CCc2cc(OC)c(OC)cc2C1c1ccccc1Cl (stereo not given)
[62] CCc1[nH]n(C(C)(C)C)c(=O)c1C1=C(N2CCCC2)C(=O)N(c2cccc(C)c2)C1=O
[63] Cc1ccc(Cn2c(C(=O)N3CCN(C(=O)Cc4cccs4)C(C)C3)cc3ccoc32)cc1 (stereo not given)
[64] Cc1nc(N2CCC(CO)(Cc3ccccc3)CC2)cc(-n2cccn2)n1

assay / compound	57	58	59	60	61	62	63	64
NPYLR7 ag max-min	3.1	9.1	-8.5	-12.1	-6.3	-4.2	4.9	-11.6
NPYLR7 ag	4.2	0.2	-5.9	-8.4	-4.7	-5.8	5.6	-6.2

[65] Cn1c(=NC(=O)C(C)(C)C)sc2cc(F)cc(F)c21
[66] N#CC(CN1CCc2ccccc2C1)C(O)c1ccncc1 (stereo not given)
[67] COC(=O)N1CCN([C@H]2C[C@H]3C[C@@H](c4ccccc4)OC[C@@]3(C)C2)CC1
[68] COc1ccc(OCCN2CCC(C(=O)NC(c3ccc(C)cc3)c3ccccn3)CC2)cc1 (stereo not given)
[69] COc1ccc(CCn2nc(C(=O)N(C)C)c3c2CCN(Cc2ccc(C)o2)C3)cc1
[70] O=C(CSc1nnc(-c2ccccc2)n1-c1ccccc1)N/N=C\c1ccc(Cl)cc1
[71] CCCN(CC(=O)Nc1c(C)n[nH]c1C)Cc1ccccc1
[72] CC(C)Nc1nnc(SCc2cc(=O)n3ccsc3n2)s1

assay / compound	65	66	67	68	69	70	71	72
NPYLR7 ag max-min	1.4	0.1&8.8&3.0	8.8	4.6	5.6	-7.7	1.8	1.4
NPYLR7 ag	2.8	-0.7&2.9&10.9	2.5	0.4	11.1	-4.0	5.3	7.9

[73] CC(C(=O)Nc1cccc([N+](=O)[O-])c1)N1C(=O)c2ccccc2S1(=O)=O (stereo not given)
[74] CC(C)Cc1cc(-c2nccn2CCc2cccnc2)n[nH]1
[75] Cc1ccc(S(=O)(=O)N(C)CC(=O)NNC(=O)C2CC=CCC2)cc1 (stereo not given)
[76] O=C(Nc1ccccc1)N1CCCC(CNS(=O)(=O)Cc2ccccc2)C1 (stereo not given)
[77] Cc1ccc(C)c(CSc2nc(=O)n(CCCO)c3c2CCC3)c1
[78] COc1ccc(NC(=O)Nc2nnc(Cc3ccc(F)cc3)s2)cc1
[79] COc1ccccc1CN1CCn2nc(C(=O)Nc3ccc(C)cc3)cc2C1=O
[80] O=C1CCN(c2ccc(S(=O)(=O)C(F)(F)F)cc2)CCN1

assay / compound	73	74	75	76	77	78	79	80
NPYLR7 ag max-min	5.3	-0.7	-2.0	12.8	-12.1	-22.8	5.7	1.7
NPYLR7 ag	7.8	1.2	-0.3	11.8	-2.8	-13.4	-1.5	1.7

[81] O=c1oc2ccccc2n1CCN1CCN(c2ncc(F)cn2)CC1
[82] C=CCN=c1scc(-c2ccc(OC(F)F)cc2)n1N=C(C)c1ccc2c(c1)OCCO2
[83] Cc1cc(C)c(NC(=O)CC2C=CCC2)c(Cl)c1 (stereo not given)
[84] Cc1cccnc1N1CCN(C(=O)C(C)n2ccnc2C(C)C)CC1 (stereo not given)
[85] Cc1ccc(C(=O)NN2C(=O)C3C4C=CC(C5CC45)C3C2=O)cc1 (stereo not given)
[86] CCOC(=O)c1nn(-c2ccc(C)cc2)c(=O)c2c(NC(=O)CC(C)(C)C)scc12
[87] CCOC(=O)N1CCN(C(=O)c2ccc(N3CCC(NCc4cnc5ccccn45)CC3)cc2)CC1
[88] COCOc1cccc(CN2CCC2(C)C(=O)Nc2ccc3c(c2)OCO3)c1 (stereo not given)

assay / compound	81	82	83	84	85	86	87	88
NPYLR7 ag max-min	-1.2	-5.5	1.6	0.5	6.8	-0.2	4.9	2.4
NPYLR7 ag	11.1	-0.6	1.5	2.4	9.1	3.1	21.9	11.2

[89] Cc1cn2c3c(=O)n(C)c(=O)n(C)c3nc2n1-c1ccccc1Cl
[90] O=c1cc(-c2cc(O)c(O)c(O)c2)oc2cc(O)cc(O)c12
[91] COc1ccc2nc(N(Cc3cccnc3)C(=O)C3CCCCC3)sc2c1
[92] COc1ccc(S(=O)(=O)N2CCC(O)(CO)CC2)c2c1CCCC2
[93] CCOC(=O)c1cccnc1N1CCCC(N2CCOCC2)C1 (stereo not given)

assay / compound	89	90	91	92	93
NPYLR7 ag max-min	7.6	21.6	-8.4	-7.1	2.3
NPYLR7 ag	-0.8	21.9	-7.4	-3.3	5.3

# Assay outcomes: PubChem BioAssay, Fisher Drug Discovery Resource Center
